Source: PubChem BioAssay (SRMLSC)
H5N1 antiviral: MDCK cell protection from H5N1 avian flu. cytopathic effect, luminescence, 72 h; hits give high values; no value below 0 was filed and about half of the inactive calls have no number; reference of the scale not given here. inhibition, % at 50 µM. hit rate 0.07% among 96,000. AID 740, 2007; in the data active = inhibition above about 25%
The depositor's hits bear a star; i = inactive. The list is partial; rates above refer to the full screens.

SMILES	H5N1 antiviral
Cc1ccc(C)n1-c1ccc2c(c1)COC2=O	2.8
Cc1cc(SCC(=O)N/N=C/c2ccc(O)c(O)c2)c(C)cc1Br	i
CCOC(=O)/C(C#N)=C/c1ccc(OCC(=O)Nc2ccc(OC)cc2)c(OC)c1	i
CCOC(=O)c1c(C)[nH]c(C(=O)CN2C(=O)NC(CC)(c3ccccc3)C2=O)c1C (stereo unspecified)	i
N#CC1(c2ccccc2)CCC(=NO)CC1 (stereo unspecified)	0.7
COc1cccc(C2=NOC(C(=O)N3CCOCC3)C2)c1 (stereo unspecified)	0.9
COc1ccc(OC)c(N2C(=O)[C@@H]3C(c4ccccc4Cl)=NO[C@@H]3C2=O)c1	i
Cc1oc2c(c(=O)c1C)C(=O)CC(c1ccccc1)C2 (stereo unspecified)	0.4
Cc1c(NC(=O)c2cccc(S(=O)(=O)N3CCOCC3)c2)c(=O)n(-c2ccccc2)n1C	i
CCOC(=O)[C@@]1(C#N)C(c2ccc(Cl)c(Cl)c2)[C@H](C(N)=O)N2C=C(C(C)=O)C=C[C@H]21 (stereo partly specified)	0.6

The final 5 compounds of the section above are carried over, then new ones follow:
SMILES	H5N1 antiviral
COc1cccc(C2=NOC(C(=O)N3CCOCC3)C2)c1 (stereo unspecified)	0.9
COc1ccc(OC)c(N2C(=O)[C@@H]3C(c4ccccc4Cl)=NO[C@@H]3C2=O)c1	i
Cc1oc2c(c(=O)c1C)C(=O)CC(c1ccccc1)C2 (stereo unspecified)	0.4
Cc1c(NC(=O)c2cccc(S(=O)(=O)N3CCOCC3)c2)c(=O)n(-c2ccccc2)n1C	i
CCOC(=O)[C@@]1(C#N)C(c2ccc(Cl)c(Cl)c2)[C@H](C(N)=O)N2C=C(C(C)=O)C=C[C@H]21 (stereo partly specified)	0.6
CC(=O)NCN1CCN(CNC(C)=O)CC1	0.8
Cn1c(-c2ccc(F)cc2)cnc1NCc1ccc(C#N)cc1	i
CC(NO)C(C)(C)NO (stereo unspecified)	i
Cc1cc(Nc2ccc(F)cc2C)n2nc(C)nc2n1	0.7
CCOc1ccc2nc(NC(=O)CN3CCC(n4nnc5cc(C(F)(F)F)ccc54)CC3)sc2c1	0.8
COc1ccccc1NS(=O)(=O)c1ccc(OC)c(OC)c1	i
COc1ccccc1N1CCN(C/C=C/c2ccc(N(C)C)cc2)CC1	i
O=C(/C(=C/c1ccccc1)c1ccccc1)N1CCCCC1	1.5
C=CCn1c(=O)c2ccccc2n2c(Sc3nnnn3-c3ccccc3)nnc12	3.0
CS(=O)(=O)N1CCN(c2c(Cl)cccc2[N+](=O)[O-])CC1	i
O=C(NC(C(=O)O)c1ccccc1)c1ccccc1 (stereo unspecified)	1.6
CC(=O)COc1ccc2c3c(c(=O)oc2c1)CCCC3	i
Cn1ccnc1SCC(=O)c1cccc(Br)c1	2.3
Cc1ccccc1NC(=O)c1ccc(F)c(S(=O)(=O)N2CCN(c3ccccn3)CC2)c1	i
CCN1CCN(C(=S)NCCc2ccccc2)CC1	0.7
O=C(NCCN1CCOCC1)C1CCN(c2nc3ccccc3o2)CC1	i
COCCOC(=O)C1=C(C)NC(=O)NC1c1ccc(Cl)cc1 (stereo unspecified)	0.3
COc1ccc(C(C(=O)NC2CCCCC2)N(Cc2cccs2)C(=O)Cc2c[nH]c3ccccc23)cc1OC (stereo unspecified)	i
Cn1c(=O)cc(SCC(=O)N2CCCC2)c2ccc(Cl)cc21	1.5
O=C(O)C1CCN(S(=O)(=O)N2CCOCC2)CC1	i
CC1CCCC(C2(O)C(=O)Nc3ccccc32)C1=O (stereo unspecified)	i
COC(=O)c1ccc2[nH]c(C)cc(=O)c2c1	i
COc1ccc2c(Cl)c(C(=O)NC3CCS(=O)(=O)C3)sc2c1 (stereo unspecified)	0.5
O=S(=O)(Nc1nccs1)c1ccc(Cl)cc1	i
COc1ccc(C(C(=O)NC2CCCCC2)N(C(=O)CCCC(=O)Nc2ccccn2)c2ccc3c(c2)OCCO3)cc1 (stereo unspecified)	i
CC(C)(C)NC(=O)NC(=O)COC(=O)CNC(=O)c1cccc(F)c1	0.1
CC(=O)c1cccc(NC(=O)CN(c2cccc(F)c2)S(C)(=O)=O)c1	0.9
CCCCOc1ccc(CN2CCN(CCO)CC2)cc1	i
Cc1nn(C(=O)c2ccccc2)c2c1C(=O)CC(C)(C)C2	i
Cc1cccc(N2CCN(CC(=O)Nc3ccc(-n4cnnn4)cc3)CC2)c1C	i
CCC(C)[C@H](Nc1nc(-c2ccccc2)nc2c1oc1ccccc12)C(=O)O (stereo partly specified)	i
CN(C)c1oc(-c2ccccc2F)nc1C#N	2.6
Cc1ccc(S(=O)(=O)Nc2cccc(C(=O)Nc3cc(C)ccn3)c2)cc1	i
N#Cc1cnn(CC2CCCCC2)c1N	i
Cc1ccc(NC2=C([N+](=O)[O-])CS(=O)(=O)C2)cc1	0.5
COc1ccc(CN2CCN(S(=O)(=O)c3ccc(F)cc3)CC2)cc1OC	i
CCOC(=O)C1C(=O)CC(C)(O)C(C(=O)OCC)C1c1ccc(Br)o1 (stereo unspecified)	0.6
COC(=O)c1ccc(CSc2ncnc3c2nnn3-c2ccc(F)cc2)o1	i
Cc1nnc(SCC(N)=O)n1CC1CCCO1 (stereo unspecified)	i
CCCCCCn1c(CN2CCN(C(=O)c3ccco3)CC2)nc2c1c(=O)n(C)c(=O)n2C	2.1
Cc1ccc(-c2csc(NC(=O)c3ccno3)n2)cc1	1.6
O=C(Cn1cnc2c(cnn2-c2ccc(F)cc2)c1=O)NCc1ccco1	i
O=C(c1cccs1)N1CCN(S(=O)(=O)N2CCOCC2)CC1	0.5
Cc1sc(NC(=O)C2CCCCC2C(=O)O)c(C(N)=O)c1-c1ccc(C(C)C)cc1 (stereo unspecified)	1.0
Cn1cc(SCC(=O)NCc2ccc3c(c2)OCO3)c2ccccc21	1.7
O=C(CCCN1C(=O)/C(=C/c2cccc(Br)c2)SC1=S)Nc1ccccn1	6.3
O=C(Nc1ccccc1N1CCOCC1)C1Cc2ccccc2CN1C(=O)c1ccco1 (stereo unspecified)	1.4
O=C1C=C(c2ccccc2)C(=O)N1Nc1ccccc1	i
O=C(NCCCN1CCN(c2ccccc2F)CC1)C1CCN(S(=O)(=O)N2CCOCC2)CC1	i
CC(C)Cc1nc2oc3c(=O)[nH]cnc3c2c2c1CCC2	2.5

(listing goes on)
SMILES	H5N1 antiviral
CC(C)Cn1c(NCCN(C)C)nc2c1c(=O)[nH]c(=O)n2C	0.2
CCC(c1nnc(SCC(=O)Nc2nnc(-c3ccccc3)o2)o1)N(C)C (stereo unspecified)	i
COc1ccccc1/C=N/Nc1nccnc1Cl	2.7
O=C(NC1CCCc2ccccc21)c1ccc(Cl)nc1 (stereo unspecified)	i
CCc1n[nH]c2c1/C(=N\O)CC(c1ccccc1)C2 (stereo unspecified)	i
O=C(O)CCC(=O)NCC1OCCc2ccccc21 (stereo unspecified)	i
CC1CC2(CC(C)(C(=O)CSc3nc4ccccc4s3)OC2=O)C(=O)O1 (stereo unspecified)	i
CS(=O)(=O)N(CC(=O)O)c1cccc(Cl)c1	0.7
Clc1cccc(Oc2ncc(CN3CCOCC3)s2)c1	0.1
Fc1ccc(C2=Nn3c(nnc3-c3n[nH]c4c3CCC4)SC2)cc1	1.4
CCCCc1c(C)nn(-c2nnc3c4ccccc4n(CC)c3n2)c1C	i
Cc1ccc([N+](=O)[O-])cc1-c1[nH]c(-c2ccc(O)c(O)c2)nc1-c1ccccc1	0.1
Cc1ccc(S(=O)(=O)N(CC(=O)N2CCOCC2)C2CCCCC2)cc1	0.9
Fc1ccc(N2CCN(Cc3cnc(Oc4ccc(Br)cc4)s3)CC2)cc1	i
Cc1cc(C)c(S(=O)(=O)N(C)CC(N)=O)c(C)c1	0.6
CCOC(=O)C1C(=O)NCC1c1ccccc1 (stereo unspecified)	i
CC(=O)c1cc(C#N)c(Oc2ccc(F)cc2)nc1C	0.6
Cc1ccc(Nc2cc(-n3cccn3)ncn2)c(C)c1	0.5
CCCCC1CC(/C(C)=N/NC(N)=O)OC1=O (stereo unspecified)	i
CC1(C)Nc2ccccc2N(CCC(=O)N2CCOCC2)C1=O	0.1
O=C(OCc1ccccc1Cl)c1cccnc1Cl	i
COC(=O)c1ccc(C(=O)OC)c(NC(=O)CSCc2ccc(Br)cc2)c1	0.3
CC(C)CC(C(=O)NCC1CCCO1)N(C(=O)Cn1nnc(-c2ccc(F)cc2)n1)c1cccc(C(F)(F)F)c1 (stereo unspecified)	0.6
CCC(C)(C)C(=O)Nc1ccc(C(N)=O)cc1	3.0
O=C(Nc1ccc(Cl)cn1)c1cccnc1	i
CCOc1ccc(C(=O)N[C@H](C(=O)O)C(C)C)cc1	0.5
COC(=O)c1ccccc1OCc1cccc(C)n1	i
CN(C)S(=O)(=O)c1cc(C(=O)O)c(NC2CCCCC2)cc1Cl	0.5
O=C(NC1CCCC1)C1=COCCO1	0.2
CCCCCOC(=O)C(C)c1c(C)[nH]c(=S)[nH]c1=O (stereo unspecified)	i
CCOc1ccc2noc3c2c1C(=O)c1ccccc1-3	0.3
CCOP(=O)(OCC)C(NCc1ccccc1)c1ccc(Br)cc1 (stereo unspecified)	i
CCOCC(=O)Nc1nc2c(s1)C(=O)CC(C)(C)C2	0.8
CC1(C)CC(=O)C(C=NCCN2CCN(C(=S)Nc3cccc(Cl)c3)CC2)=C(O)C1	0.2
COc1ccccc1OCC(=O)Nc1ccc(O)cc1C(=O)O	i
CC12CC3(C)CC(C)(C1)CC(C(=O)Nc1nn[nH]n1)(C2)C3	1.4
CCCn1c(SCC(=O)NC2CCCC(C)C2C)n[nH]c1=O (stereo unspecified)	0.3
Cc1cc(S(=O)(=O)N2CCCC2)ccc1OCC(=O)N1CCOCC1	1.7
CCOC(=O)/C(C#N)=C1/C=Nc2ccccc2N1	1.1
CC(C)n1c(SCc2ccc(Cl)cc2)nc2c1c(=O)[nH]c(=O)n2C	0.2
CCOC(=O)C(NC(=O)CCC(=O)Nc1ccc(S(N)(=O)=O)cc1)C(O)c1ccccc1 (stereo unspecified)	i
COC(=O)COc1ccc2c(-c3ccc(OC)cc3)cc(=O)oc2c1	i
O=[N+]([O-])c1cc2c(cc1/C=N/Nc1nc(Nc3ccccc3)nc(N3CCCCC3)n1)OCO2	i
Cc1c(O)c(CN2CCCCC2)cc2c3c(c(=O)oc12)CCC3	2.2
Cn1ccnc1P(=S)(c1nccn1C)c1nccn1C	i
N[C@@H](Cc1ccccc1)c1nnc(SCc2ccccc2Cl)o1	1.2
CCCCn1c(O)c(C(C)=NC(Cc2c[nH]c3ccccc23)C(=O)OC)c(=O)[nH]c1=O (stereo unspecified)	0.1
O=C(OCc1nc2ccccc2c(=O)[nH]1)c1cccs1	1.5
O=C(/C=C/c1ccc(Cl)cc1Cl)c1cccnc1	1.5
O=C(Cc1cccs1)N(Cc1ccco1)C1(C(=O)NC2CCCCC2)CCCCC1	i

Additional records
SMILES	H5N1 antiviral
CCSc1nc2c(c(=O)[nH]1)C(c1cccnc1)C(C(=O)OC)=C(C)N2 (stereo unspecified)	0.2
CCCNC(=O)CS(=O)Cc1nc(-c2ccccc2C)oc1C (stereo unspecified)	i
O=C(Cn1cc(/C=N/O)c2ccccc21)N1CCOCC1	i
CCOCCCNc1nc2c([nH]1)c(=O)n(C)c(=O)n2C	1.3
CCCC(=O)Nc1cccc(NC(=O)c2ccc3c(c2)OCO3)c1	i
O=C(Cn1cc2c(n1)CCCC2)NCc1ccccn1	i
COc1ccc(S(=O)(=O)Nc2cccc(NC(C)=O)c2)cc1	i
CCC12CC3CC(C1)CC(C(=O)Nc1nn[nH]n1)(C3)C2	i
CCOC(=O)C1CCN(S(=O)(=O)c2ccc(OCC)cc2)CC1	0.5
CN1CCCC(OC(=O)c2cc(Br)ccc2Cl)C1 (stereo unspecified)	i
Nc1c(-c2cccc(Cl)c2)cnn1-c1cccc([N+](=O)[O-])c1	2.9
CCOC(=O)C1CCN(C(=O)CSCc2nc(-c3ccc(OCC)cc3)oc2C)CC1	i
CCN(CCNC(=O)C1CC(=O)N(CCc2ccccc2)C1)c1ccccc1 (stereo unspecified)	1.1
CN1CC(=O)N(CC(=O)NCc2ccc(F)cc2)c2ccccc2C1=O	i
O=C1OCCC1Sc1nnc(-c2cccs2)n1Cc1ccccc1 (stereo unspecified)	0.2
COc1cccc(NC(=O)c2ccco2)c1	0.2
O=C(COC(=O)c1ccc(Oc2ccccc2)cc1)Nc1nnc(-c2ccccc2)o1	i
COc1cccc(C(=O)Nc2ccccc2C(=O)N2CCCC2)c1	0.6
CCC(C)(C)c1nnc(NC(=O)c2ccc([N+](=O)[O-])cc2)s1	i
CCOC(=O)N1CCN(C(=O)C2CCCN(S(=O)(=O)c3cc(C)ccc3OC)C2)CC1 (stereo unspecified)	2.7
CCOC(=O)c1c(C)[nH]c(C(=O)COC(=O)CNC(=O)C2CCCCC2)c1C	i
CC(C)CCNC(=O)CCCOc1cc(=O)n(C)c2ccccc12	1.3
O=C(Nc1ccccc1N1CCCCC1)c1ccc(N2C(=O)c3ccccc3C2=O)cc1	i
CCc1cccc(C)c1NC(=O)CSc1ncn[nH]1	i
O=C(Nc1cc2c3c(c1)C1CCCC1CN3CC1CCCC21)c1ccccc1 (stereo unspecified)	i

Structures listed so far that contain an aryl thioether with sulfur outside any ring:
SMILES	H5N1 antiviral
Cc1cc(SCC(=O)N/N=C/c2ccc(O)c(O)c2)c(C)cc1Br	i
C=CCn1c(=O)c2ccccc2n2c(Sc3nnnn3-c3ccccc3)nnc12	3.0
Cn1ccnc1SCC(=O)c1cccc(Br)c1	2.3
Cn1c(=O)cc(SCC(=O)N2CCCC2)c2ccc(Cl)cc21	1.5
COC(=O)c1ccc(CSc2ncnc3c2nnn3-c2ccc(F)cc2)o1	i
Cc1nnc(SCC(N)=O)n1CC1CCCO1 (stereo unspecified)	i
Cn1cc(SCC(=O)NCc2ccc3c(c2)OCO3)c2ccccc21	1.7
CCC(c1nnc(SCC(=O)Nc2nnc(-c3ccccc3)o2)o1)N(C)C (stereo unspecified)	i
CC1CC2(CC(C)(C(=O)CSc3nc4ccccc4s3)OC2=O)C(=O)O1 (stereo unspecified)	i
CCCn1c(SCC(=O)NC2CCCC(C)C2C)n[nH]c1=O (stereo unspecified)	0.3
CC(C)n1c(SCc2ccc(Cl)cc2)nc2c1c(=O)[nH]c(=O)n2C	0.2
N[C@@H](Cc1ccccc1)c1nnc(SCc2ccccc2Cl)o1	1.2
CCSc1nc2c(c(=O)[nH]1)C(c1cccnc1)C(C(=O)OC)=C(C)N2 (stereo unspecified)	0.2
O=C1OCCC1Sc1nnc(-c2cccs2)n1Cc1ccccc1 (stereo unspecified)	0.2
CCc1cccc(C)c1NC(=O)CSc1ncn[nH]1	i
